PrP UTR inh = inhibition of PrP 5' UTR reporter expression. inhibition, % (no concentration beside the values). 340,000 compounds, 0.35% hits. cell-based PrP 5' UTR mRNA reporter, plate reader;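 active = every replicate at 50% or more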;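 also: 0 = median of the neutral control wells; tested in H4 reporter cells; numbers are from one replicate; inactives centre near -14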
BJeLR viability = BJeLR cell viability loss | BJeLR (HRASV12) viability, CellTiter-Glo ATP luminescence, 48 h; reference of the scale not given here | inhibition, % (no concentration beside the values) | 300,000 compounds, 0.17% hits | AID 1554;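 active = replicate mean above 50%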;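 also: 50 nL library stock added to about 25 µL; numbers are from one replicate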
Mtb hypoxia rep = reduces hypoxia-regulated biosensor signal in M. tuberculosis. 300,000 compounds, 0.1% hits. fluorescence inhibition, % (test concentration not listed). M. tuberculosis hypoxia-regulated fluorescent reporter, fluorescence;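 active = 35 to 45% if threefold the growth effect, above 45% if 1.5-fold the growth effect; inactive = the rest, general growth blockers included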;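 also: wells of about 50 µL received 100 nL stock; 0% = vehicle wells and 100% = reference inhibitor wells; whole bacteria with a GFP reporter of the hypoxia response; strong numbers were not always called active; many hits fall short of the cut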
Autofluor counter = flagged as autofluorescent in microsphere protease counterscreen; fluorescence intensity (test concentration not listed); 360,000 compounds, 3.1% hits; compound autofluorescence counterscreen, microsphere flow cytometry; hits give high values;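 active = at least 3 SD above the mean of all compounds, about 16000 in these data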;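 also: 100 nL of 1 mM stock went into each well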
Sa RN4220 lethal = kills Staphylococcus aureus RN4220 | S. aureus RN4220 growth, OD600, 16 h | inhibition, % (concentration not given with the values) | 330,000 compounds, 0.33% hits;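 active = z-score of -3 or lower and OD600 up to 0.18 on both plates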;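 also: plate controls were untreated cells for no effect and reference antibiotic for full effect; stock transfer was 100 nL into about 80 µL; one replicate is shown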
ugtP null kill = compounds lethal to S. aureus RN4220 ugtP deletion mutant | OD600 growth, 16 h; some inactives read as strong as hits | growth inhibition, % (concentration not given with the values) | 330,000 compounds, 0.54% hits;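 active = z-score under -3 and OD600 up to 0.15 on both plates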;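 also: plate controls were untreated wells for no effect and antibiotic for full effect; wells of about 80 µL received 100 nL stock; the first replicate is given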
Mtb hypoxia rep growth = second read-out of Mtb hypoxia rep, no call of its own (marks repeat the call); growth inhibition, %; measured here: M. tuberculosis growth (absorbance);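 0% = vehicle and 100% = reference antibiotic; read after six days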
Starred values were filed as active, the others as inactive; . = not tested or not shown; & = joins results of further samples.

Sequence of screens – ugtP null kill, Autofluor counter, PrP UTR inh, Mtb hypoxia rep growth, BJeLR viability, Mtb hypoxia rep, Sa RN4220 lethal
1. CC(C)C[C@@H](CSc1ccccc1)N1CCN(C)CCC1=O
 : ., 4607, -28.5, ., 11.3, ., .
2. O=C(c1cc(C(=O)N2CCN(c3ccc(F)cc3)CC2)cc([N+](=O)[O-])c1)N1CCN(c2ccc(F)cc2)CC1
 : -0.9, 4315, -6.8, 9.9, -4.3, 11.1, -10.5
3. CCOC(=O)c1c(NC(=O)C2C3C=CC(C3)C2C(=O)O)sc2c1CCC(C)C2 (configuration not stated)
 : 4.6, 1947, -4.2, 11.7, -5.9, 0.6, 6.6
4. CCOC(=O)c1nc(Nc2ccc(C(=O)OC)cc2)c2ccccc2n1
 : ., 3152, -19.5, ., 13.6, ., .
5. c1ccc2c(c1)CNc1ccccc1-2
 : -1.1, 2887, -18.2, 8.4, ., 4.2, 4.4
6. CCCCC1CCC(C(=O)N2CCOCC2)CC1 (configuration not stated)
 : 18.1, 2185, -16.6, ., -1.3, ., 2.8
7. CSc1ccc2c(c1)N(CCC1CCCCN1C)c1ccccc1S2 (configuration not stated)
 : ., 6397, -4.5&-19.4, ., 8.4, ., .
8. Cc1[nH]c(=O)[nH]c(=O)c1S(=O)(=O)N(CC(C)C)CC(C)C
 : -6.9, 4168, -4.8, 2.0, 2.2, 1.4, 8.2
9. O=C(c1ccc2c(c1)C(=O)N(Cc1ccco1)C2=O)N1CCOCC1
 : -2.9, 23883*, -16.6, 13.4, 7.8, 5.7, 8.4
10. CC(C)(C)c1cc(NC(=O)NN2CCOCC2)nn1-c1c(Cl)cc(Cl)cc1Cl
 : 5.0, 4205, -12.9, -5.5, -1.3, 1.2, -1.5
11. CCCCCCN(C(=O)CCCCCN1C(=O)NC(c2ccc(-c3ccccc3)cc2)C(C(=O)OCc2ccccc2)=C1C)C(C(=O)NCCCC)c1cccc(C(=O)OC)c1 (configuration not stated)
 : -16.5, ., ., 6.3, -21.1, 10.3, 5.0
12. Cc1cc(-c2csc(N)n2)c(C)n1-c1ccccc1
 : -3.9, 1537, -56.1, 3.2, 2.8, 7.3, 2.2
13. Cc1onc(-c2ccccc2Cl)c1C(=O)Nc1nn[nH]n1
 : 9.3, 4351, -7.7, 2.7, ., 6.2, 10.0
14. CCCc1cc(=O)[nH]c(N=C(NC(=O)C(C)N2C(=O)c3ccccc3C2=O)Nc2ccccc2)n1 (configuration not stated)
 : 4.4, ., ., 12.5, ., 12.9, 5.0
15. Cc1cccc(N2CCN(S(=O)(=O)c3ccc4c(c3)OCCO4)CC2)c1C
 : 48.1, 3642, -1.1, 6.1, 1.3, -7.1, -2.5
16. CCCCCCc1nc(C(N)=O)c2[nH]c(=O)n(-c3ccccc3F)c2n1
 : -9.6, 4731, 0.5, -6.1, -16.4, -4.8, -2.7
17. COc1ccc(NC(=O)CSc2nnc(Cc3ccccc3)c(=O)n2N)c(OC)c1
 : 1.9, 4403, -18.7, 8.8, 5.4, 2.1, 0.3
18. COc1ccc(NC(=O)COc2ccc(C(=O)NC3CCCc4ccccc43)cc2OC)cc1 (configuration not stated)
 : ., 2830, -9.3, ., -2.4, ., .
19. O=C(OCC(=O)N1CCc2ccccc21)c1cc(S(=O)(=O)N2CCOCC2)ccc1F
 : 7.5, 5046, -8.2, -9.7, ., 8.0, 0.3
20. O=C(Nc1nc2c(s1)COc1ccccc1-2)c1cccs1
 : 3.4, 4460, -20.4, -6.1, 1.1, -4.1, 35.1

Single records, from the list above:
`CSc1ccc2c(c1)N(CCC1CCCCN1C)c1ccccc1S2` (configuration not stated) reads ugtP null kill: .; Autofluor counter: 6397; PrP UTR inh: -4.5&-19.4; Mtb hypoxia rep growth: .; BJeLR viability: 8.4; Mtb hypoxia rep: .; Sa RN4220 lethal: .
`COc1ccc(NC(=O)COc2ccc(C(=O)NC3CCCc4ccccc43)cc2OC)cc1` (configuration not stated) reads ugtP null kill: .; Autofluor counter: 2830; PrP UTR inh: -9.3; Mtb hypoxia rep growth: .; BJeLR viability: -2.4; Mtb hypoxia rep: .; Sa RN4220 lethal: .

Among those listed so far, three have fluorine:
Sequence of screens – ugtP null kill, Autofluor counter, PrP UTR inh, Mtb hypoxia rep growth, BJeLR viability, Mtb hypoxia rep, Sa RN4220 lethal
2. O=C(c1cc(C(=O)N2CCN(c3ccc(F)cc3)CC2)cc([N+](=O)[O-])c1)N1CCN(c2ccc(F)cc2)CC1
 : -0.9, 4315, -6.8, 9.9, -4.3, 11.1, -10.5
16. CCCCCCc1nc(C(N)=O)c2[nH]c(=O)n(-c3ccccc3F)c2n1
 : -9.6, 4731, 0.5, -6.1, -16.4, -4.8, -2.7
19. O=C(OCC(=O)N1CCc2ccccc21)c1cc(S(=O)(=O)N2CCOCC2)ccc1F
 : 7.5, 5046, -8.2, -9.7, ., 8.0, 0.3

Back to the main list, repeating the 3 entries before the break.
Sequence of screens – ugtP null kill, Autofluor counter, PrP UTR inh, Mtb hypoxia rep growth, BJeLR viability, Mtb hypoxia rep, Sa RN4220 lethal
18. COc1ccc(NC(=O)COc2ccc(C(=O)NC3CCCc4ccccc43)cc2OC)cc1 (configuration not stated)
 : ., 2830, -9.3, ., -2.4, ., .
19. O=C(OCC(=O)N1CCc2ccccc21)c1cc(S(=O)(=O)N2CCOCC2)ccc1F
 : 7.5, 5046, -8.2, -9.7, ., 8.0, 0.3
20. O=C(Nc1nc2c(s1)COc1ccccc1-2)c1cccs1
 : 3.4, 4460, -20.4, -6.1, 1.1, -4.1, 35.1
21. COc1ccc(CCNC(=O)CCN2C(=O)c3cccc4cccc(c34)C2=O)cc1OC
 : 4.9, 2532, -0.8, 11.9, -0.3, 7.0, 1.9
22. CCn1c(SCc2cc(=O)[nH]c3ccccc23)nc2c1c(=O)n(C)c(=O)n2C
 : 6.8, 24332*, 1.8, -0.2, ., 2.6, 4.4
23. CCN(CC(=O)Nc1ccccc1C(F)(F)F)C(=O)CCc1nc2ccccc2c(=O)[nH]1
 : 10.4, 3611, 4.7, -0.5, 4.9, 3.3, 5.3
24. COc1ccccc1C(=O)NC(=S)NC12CC3CC(CC(C3)C1)C2
 : 13.9, 5721, -22.4, 4.9, -10.0, -8.8, -8.0
25. COCCCn1c(N)c(C(=O)OCCOC)c2nc3ccccc3nc21
 : -2.1, 4788, -21.6, ., 14.4, ., 2.4
26. Cc1ccc(N(C(=O)c2ccco2)C2C=CS(=O)(=O)C2)cc1 (configuration not stated)
 : 6.9, 3972, -16.6, 12.9, -0.3, 9.8, 3.1
27. COc1ccc(C(CCNCc2ccccc2)c2ccc(F)cc2)cc1 (configuration not stated)
 : 0.3, 2068, -8.7, -0.7, 6.5, -14.0, -8.6
28. CCOc1ccc(-c2c(C(=O)N/N=C/c3ccoc3)nnn2-c2nonc2N)cc1
 : ., 3872, -16.1, ., 3.0, ., .
29. C#CCOCCOCCOCCNc1nc(N2CCN(C(=O)C(Cc3ccc(O)cc3)n3cc(C(N)C(C)CC)nn3)CC2)nc(N2CCN(C(=O)C(Cc3ccc(O)cc3)n3cc(C(N)C(C)CC)nn3)CC2)n1 (configuration not stated)
 : -1.8, 4343, -10.5, 20.2, 0.7, 2.8, -2.4
30. CC(C)=CCCC1=CCC(C(C)=NNC(N)=O)CC1 (configuration not stated)
 : 14.2, ., ., 7.7, ., 7.9, 16.9
31. COc1ccc(NC(=O)C2CC(=O)N/C(=N/NC(=O)c3ccc(Cl)cc3)S2)cc1 (configuration not stated)
 : -9.5, 5055, -28.5, 13.0, -7.3, 2.0, 2.4
32. CCOC(=O)C1=C(c2ccccc2)NC(=O)NC1c1ccc(N(C)C)cc1 (configuration not stated)
 : -7.2, 6673, -16.1, 5.3, -2.8, -6.9, 7.4
33. CS(=O)(=O)N1CCc2cc(C(=O)N3CCN(c4ccccc4)CC3)ccc21
 : 2.2, 5911, -6.3, 15.3, -0.5, 6.3, 1.4
34. O=C1c2ccccc2NC(c2cccc(O)c2)N1Cc1ccco1 (configuration not stated)
 : 3.3, 4114, -23.0, 3.9, 11.9, 4.6, 4.6
35. COCc1nc(-c2ccc(-c3ccc(C)cc3)nc2OC)no1
 : -4.9, 7295, -38.2, 7.2, -3.7, 0.4, 8.8
36. CCc1cc2c(C)cc(=O)oc2cc1OC(=O)C1CCCN1C(=O)OC(C)(C)C (configuration not stated)
 : 23.0, ., -19.4, ., -2.8, ., 1.5
37. CC(C)OC(=S)N/C(=N\S(=O)(=O)c1ccccc1)c1ccccc1
 : ., 10321, -13.8, ., -5.2, ., .
38. COc1cccc(C2c3c(oc4cc(C)c(C)cc4c3=O)C(=O)N2CCCN(C)C)c1 (configuration not stated)
 : -3.7, 6090, -8.0, ., -12.4, ., 2.4
39. CCC(CO)NCc1ccccc1OC(C)C (configuration not stated)
 : 7.6, 4564, -37.6, 1.2, 8.9, -2.2, 5.6
40. CC(C)c1nc(SCC(=O)NC2CCCC2)c2ccccc2n1
 : 2.7, 6002, -19.6, -4.3, -10.7, 11.6, 1.2
41. CCCc1cc2c(=O)c(-c3ccc4c(c3)OCCO4)coc2cc1OC(=O)c1ccco1
 : 7.4, 3005, -135.5, 7.6, 7.7, 3.2, 7.9
42. COc1cccc(NC(=O)c2ccccc2-c2nc(-c3ccc(Cl)cc3)no2)c1
 : -2.8, 3562, -12.4, ., ., ., -10.2
43. COC(=O)[C@@H]1C[C@@]1(C)[C@@H](NP(=O)(c1ccccc1)c1ccccc1)c1ccccc1
 : ., 3515, -18.5, ., 4.8, ., .
44. C=C(C)Cn1c(SCC(=O)N/N=C/c2ccccc2)nc2ccccc2c1=O
 : ., 1998, -21.8, ., 7.2, ., .
45. CCc1ccccc1NC(=O)CSc1nnc([C@@H](NC(=O)OC(C)(C)C)C(C)C)o1
 : -9.7, 15568, -19.8, 14.9, 0.2, 9.4, -9.0
46. FC(F)(F)c1cccc(Nc2nc(N3CCCC3)nc(N3CCCC3)n2)c1
 : 41.7, 4404, -19.9, -4.9, 3.4, 7.4, -8.6
47. CC(C)(C)CC(C)(C)c1ccc(OCC(=O)N/N=C/c2ccc(S(=O)(=O)O)o2)cc1
 : ., 3824, -16.6, ., 3.9, ., .
48. O=C(OCn1nnc2ccccc2c1=O)c1cccnc1Cl
 : -1.4, 10352, -34.1, 1.2, 2.7, 1.2, 2.4
49. Cc1ccccc1N=C1c2cc([N+](=O)[O-])ccc2-c2ncccc21
 : 6.4, 1889, -3.3, 2.3, 0.0, 0.3, 4.5
50. Cc1ccc(CNC(=O)C2CC2c2ccccc2)cc1 (configuration not stated)
 : 7.9, 2466, -9.1, 6.7, -20.6, 7.9, -0.8
51. COc1cc(NC(=O)c2ccco2)c(OC)cc1NC(=O)CCC(=O)Nc1cc(C)cc(C)c1
 : -11.6, 20576*, -74.2, 7.2, -8.9, 8.9, 5.4
52. COC(=O)c1ccc2c(c1)NC(=O)C(N(CC(C)C)CC(C)C)S2 (configuration not stated)
 : 10.0, 4793, ., 4.5, -5.4, 9.3, 3.3
53. CC(C)C1OC2(C)OC(=N)C1(C#N)C(C#N)(C#N)C2c1ccccc1 (configuration not stated)
 : -0.3, 10235, 9.3, 4.7, 10.3, 1.6, 1.4
54. CN1CCN(c2ccc([N+](=O)[O-])c(Sc3nncn3C)c2)CC1
 : -0.4, 1962, -1.1, 11.8, 0.5, 10.3, 2.7
55. Cc1nc(N2N=C3/C(=C/c4ccc(F)cc4)CCCC3C2c2ccc(F)cc2)sc1C(=O)N(C)C (configuration not stated)
 : ., 8194, -7.4, ., -8.6, ., .

Screening data deposited in PubChem BioAssay by several laboratories.
